High-throughput results deposited in PubChem BioAssay by National Center for Advancing Translational Sciences (NCATS).
SmPrx2 inh: blocks S. mansoni peroxiredoxin 2 enzymatic activity. S. mansoni Prx2 activity coupled to TGR/GSH (TGR is thioredoxin glutathione reductase), NADPH fluorescence loss, qHTS; some inactives read as strong as hits. Potency, µM. hit rate 0.07% among 65,000; active means full or partial inhibition curve with a strong effect at the top dose; inconclusive means weaker partial or single-point curve; inactive means no accepted curve; also: series up to 57 µM; many of its hits are not listed in these tables
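Prx2 activity was followed as the loss of NADPH fluorescence (ex 365/em 450 nm), read every 30 sec for 8 min after H2O2 start. The enzyme mix (50 nM Prx2, 25 nM TGR, GSH, NADPH; pH 7.4 phosphate buffer) was incubated with compound for 15 min at room temperature first.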
Anthrax LT inh: anthrax lethal toxin internalization inhibition. Cells, anthrax lethal toxin internalization, FRET ratio (460/530). Potency, µM (series often up to 40 µM), for the others: top-dose activity change, negative = inhibition, usual class: inhibitors. hit rate 0.67% among 70,000. AID 912; active = well fitted falling ratio curve with the 530 nm signal flat; inconclusive = other ratio curves, or a change in one channel alone; inactive = flat curves in the ratio and both channels; the % refers to the ratio; also: % is scaled to controls: 0 for no effect and ±100 for the full control effect; nearly all actives have a fitted effect of over 50% in size; tested in ME-180 cells; beta-lactamase reporter
Numbers without * were called inactive; ? = inconclusive; . = no result given; [ ] = another dose, or the depositor's remark. Potency is read from the fitted curve at half-maximal effect. An excerpt. The share of hits here may be higher or lower than overall.

entry | mol | SmPrx2 inh | Anthrax LT inh
1 | Cn1c(SCC(=O)N2CCc3ccccc3C2)nnc1-c1cccs1 | >57 | ?
2 | CC(C)CNc1oc(-c2ccc(F)cc2)nc1C#N | >57 | ?
3 | CN(C)c1nc(Oc2ccc(N)cc2)nc(N(C)C)n1 | >57 | -2%
4 | COc1ccc(NC2=NCC(=O)N2c2ccccc2F)c(OC)c1 | >57 | 4%
5 | CCn1nc(C(=O)OCC(=O)c2ccc3c(c2)OCCO3)c2ccccc2c1=O | >57 | -4%
6 | CC(C)c1ccc2c([Si](C)(C)C)c3c(nc2c1)-c1cccc(=O)n1C3 | >57 | ?
7 | CCCC(=O)Nc1ccc2oc(-c3ccncc3)nc2c1 | >57 | 0%
8 | CC(=O)CC(C)=NCCN=C(C)CC(C)=O | >57 | 1%
9 | Cc1ccc(C2(C)NC(=O)N(CC(=O)NC(=O)NC3CCCC3)C2=O)cc1 (configuration not stated) | >57 | -14%
10 | Cc1cc(OCC(O)CN(CCO)CCO)ccc1Cl (configuration not stated) | >57 | 7%
11 | COc1ccc(OCC(=O)N2CCOCC2)cc1 | . | 1%
12 | Cc1ccc2c(c1)nnn2C1CCN(S(=O)(=O)c2ccc(C(=O)N3CC(C)CC(C)C3)cc2)CC1 (configuration not stated) | >57 | 5%
13 | CC(C)C[C@@H](CC(=O)N[C@@H](CCC(=O)O)CC(=O)O)NC(=O)[C@@H]1CNCC[C@H]1NC(=O)C[C@@H](NC(=O)C[C@H](Cc1c[nH]c2ccccc12)NC(=O)[C@@H]1CNCC[C@H]1N)C(C)C | >57 | 3%
14 | CCCn1c(CN2CCN(C(=O)OCC)CC2)nc2c1c(=O)n(C)c(=O)n2C | >57 | 11%
15 | CCc1nnc(NC(=O)CSc2nnc(-c3c[nH]c4ccccc34)n2C)s1 | >57 | ?
16 | O=C(c1ccccc1F)N1CCN=C1SCc1cccnc1 | >57 | -2%
17 | O=C(O)CSCC(=O)O | >57 | -9%[8 µM]
18 | O=C(COc1ccccc1)N(Cc1ccco1)c1ccc(O)cc1 | >57 | ?
19 | Cc1cc(C)c(NC(=O)CSc2nc3c(c(=O)n2C)SC(C)C3)c(C)c1 (configuration not stated) | >57 | -4%
20 | Cc1cc(C(=O)NCCCn2ccnc2)cs1 | >57 | -6%
21 | CSc1nc2ccccc2n1C(=O)Oc1ccccc1 | >57 | -13%
22 | Cc1ccccc1N(CC(=O)NCCc1ccccc1)C(=O)c1ccc(N2CCCC2)nc1 | >57 | 9%
23 | O=c1c[n+]([O-])c2ccccc2n1OCc1c(F)cccc1F | >57 | -5%
24 | O=C(O)CC(CC(=O)Nc1nncs1)c1ccccc1 (configuration not stated) | >57 | 4%
25 | CCC(=O)Nc1cc(C)c(NC(=O)c2ccccc2OC)cn1 | >57 | -12%
26 | C=CCNC(=O)N[C@@H](CCSC)C(=O)OC | >57 | 2%
27 | O=P(c1ccccc1)(c1ccccc1)C(O)c1ccncc1 (configuration not stated) | >57 | 7%
28 | O=C(Nc1ccccc1C(F)(F)F)N1CCCCCC1 | >57 | 12%
29 | CC(NC(=O)Nc1ccccc1)c1ccccc1 (configuration not stated) | . | -4%
30 | Cc1ccc(S(=O)(=O)CC(=O)N2CCCCCC2)cc1 | >57 | 6%
31 | Cn1c(C[C@@H](O)c2nc3ccccc3n2C)nc2ccccc21 | >57 | -13%[8 µM]
32 | O=C(Nc1ccncc1)C1c2ccccc2Oc2ccccc21 | >57 | 8%
33 | CSc1cccc(NS(=O)(=O)c2ccc(F)cc2)c1 | >57 | -6%
34 | COc1cc(C)c(S(=O)(=O)n2ccc(C)n2)cc1C | >57 | -1%
35 | COc1ccc(S(=O)(=O)NCc2ccc(C(=O)O)cc2)cc1 | >57 | 4%
36 | COc1ccc(OC)c(NC(=O)C23CCC(C)(C(=O)O2)C3(C)C)c1 (configuration not stated) | >57 | 12%
37 | O=C(NC1CCCCC1)c1ccc(S(=O)(=O)NCc2cccnc2)cc1 | >57 | -5%
38 | COc1ccc(NC(=O)CNS(=O)(=O)c2ccc3nc(C)sc3c2)c(OC)c1 | >57 | -6%
39 | COc1ccc(CC(NC(C)=O)C(=O)N2CCN(C(=O)N(C(C)C)C(C)C)CC2)cc1 (configuration not stated) | >57 | 6%
40 | CCOc1ccc(C)cc1S(=O)(=O)n1ccc(C)n1 | >57 | 5%
41 | COc1ccc(S(=O)(=O)N2CCN(c3ccccn3)CC2)cc1OC | >57 | 1%
42 | COc1ccc(-n2c(SCC(=O)Nc3nccs3)nc3c(c2=O)SC(C)C3)cc1 (configuration not stated) | >57 | 3%
43 | CSc1nnc(-c2cccs2)n1-c1ccccc1 | >57 | -3%
44 | COCCCNC(=O)c1ccc2c(c1)OCO2 | >57 | 8%
45 | CCCCCc1c(O)nc(SCC(=O)NCC2CCCO2)[nH]c1=O (configuration not stated) | >57 | -21%
46 | NC(=O)C1(c2ccccc2)CCOCC1 | >57 | 3%
47 | C=CCN(C(=O)CN1CCOCC1)c1nc(C)c(-c2ccccc2)s1 | >57 | 1%
48 | O=C(CN1C(=O)c2ccccc2S1(=O)=O)NCc1ccccn1 | >57 | ?
49 | NCCC[C@@H](CC(=O)N[C@@H]1CCNC[C@H]1C(=O)N[C@H](CC(=O)N[C@@H](CCC(=O)O)CC(=O)O)Cc1c[nH]c2ccccc12)NC(=O)C[C@H](Cc1ccccc1)NC(=O)[C@@H]1CNCC[C@H]1N | >57 | -3%
50 | Cc1cc(OCC(=O)Nn2cnnc2)c(C)cc1Br | >57 | -3%
51 | C(=N\n1cnnc1)/c1cccc(OCCOc2ccccc2)c1 | >57 | -9%
52 | Cc1cc(C)cc(NC(=O)CSc2nnc(-c3ccccc3)n2N)c1 | >57 | -9%
53 | CC(NS(=O)(=O)c1ccccc1)C(N)=O (configuration not stated) | >57 | 3%
54 | COc1cccc(-c2nc(NCCc3c[nH]c4ccc(OC)cc34)c3ccccc3n2)c1 | >57 | ?
55 | CC(C)OC(=O)c1cccc(C(=O)O)n1 | >57 | 2%
56 | CCCc1nnc(NC(=O)CCN2C(=O)c3ccccc3C2=O)s1 | >57 | ?

(further entries)
entry | mol | SmPrx2 inh | Anthrax LT inh
57 | Cc1cc(NC(=O)c2ccc3c(c2)OCO3)no1 | >57 | 7%
58 | CC12CC(NC(=O)N1c1cccc(C(=O)N3CCN(c4ccccc4F)CC3)c1)c1ccccc1O2 (configuration not stated) | >57 | 0%
59 | Cc1cccc(C)c1NC(=O)CSc1nnc(-c2ccco2)n1N | >57 | -10%
60 | Cc1ccsc1C1C2=C(CC(C)(C)CC2=O)Nc2ncnn21 (configuration not stated) | >57 | ?
61 | Cc1cc(C(=O)N(C2CCCCC2)C2CCCCC2)no1 | >57 | ?
62 | CCc1nc(N(CC)CC)c2oc3ccccc3c2n1 | >57 | 1%
63 | O=C(CSc1ccc2nnc(-c3ccc(F)cc3)n2n1)NCC1CCCO1 (configuration not stated) | >57 | -2%
64 | CCOC(=O)C1CCN(Cc2ccc(O)c3ncccc23)CC1 | >57 | -19%
65 | COC(=O)C(C)Sc1nc2c(cnn2-c2ccc(C)cc2)c(=O)[nH]1 (configuration not stated) | >57 | 12%
66 | COc1ccc(CCNC(=O)c2cc(-c3ccc4c(c3)OCO4)on2)cc1OC | >57 | 4%
67 | Cc1ccccc1CN1CCNC1=O | >57 | .
68 | O=C(O)c1ccccc1C(=O)Nc1ccccn1 | >57 | 5%
69 | CN1C(=O)CC(N2CCN(CC(=O)N3CCCC3)CC2)C1=O (configuration not stated) | . | -3%
70 | COc1ncccc1C(=O)NCC(CC(=O)O)c1ccccc1 (configuration not stated) | >57 | -2%
71 | O=C(Nc1nnc(-c2ccccc2Cl)o1)c1ccc(S(=O)(=O)N2CCCCCC2)cc1 | >57 | 6%
72 | CCOC(=O)C1CCN(S(=O)(=O)c2ccc3c4c(cccc24)C(=O)N3)CC1 | >57 | ?
73 | Cc1cnc(CNc2cc(-c3c(C)noc3C)ncn2)cn1 | >57 | ?
74 | CC(NC(=O)CSc1ncccn1)c1ccccc1 (configuration not stated) | >57 | 8%
75 | O=S(=O)(NCC1CCCO1)c1ccc2ccccc2c1 (configuration not stated) | . | 7%
76 | CCC(C(=O)NCc1ccc(F)cc1)N(Cc1ccco1)C(=O)c1snc(C(N)=O)c1N (configuration not stated) | >57 | -8%
77 | Cc1ccc(C(=O)N2c3ccc(F)cc3CCC2C)o1 (configuration not stated) | >57 | -3%
78 | COc1ccc(CCNC(=O)CC2Oc3ccc(Cl)cc3NC2=O)cc1OC (configuration not stated) | >57 | 3%
79 | CN1CCN(Cc2nc3ccccc3n2C)CC1 | >57 | .
80 | CCN(C(=O)c1cn(C)c(=O)c2cc(OC)c(OC)cc12)c1cc(OC)ccc1OC | >57 | 6%
81 | CC(=O)C1=C(C)NC(C)=C(C(C)=O)C1c1cccs1 | . | 1%
82 | O=C(NCCc1csc(-c2cccnc2)n1)c1ccc(Br)o1 | >57 | 16%
83 | Cc1ccc(-c2ccc(C(=O)O)[nH]2)cc1 | >57 | 6%
84 | CN1CCN(S(=O)(=O)c2ccc(NC(=O)Nc3cccc(Cl)c3)cc2)CC1 | >57 | 13µM*
85 | COC(=O)[C@@H](NC(=O)NCc1ccco1)C(C)C | >57 | 8%
86 | COCCN(CCOC)c1ncnc2c1cnn2-c1ccc(Cl)cc1 | >57 | .
87 | CCOc1ccc(CC(=O)Nc2c(C(N)=O)oc3ccc(Br)cc23)cc1OCC | >57 | -11%
88 | COc1ccc2[nH]c(C)c(CN3CCCCC3)c(=O)c2c1 | >57 | 5%
89 | O=C(Oc1ccc(Br)cc1)C1CC(=O)N(c2ccc(F)cc2)C1 (configuration not stated) | >57 | .
90 | Cn1c(SCC(=O)NCc2ccc3c(c2)OCO3)nnc1-c1cc2ccccc2cc1O | >57 | -7%
91 | COc1ccccc1NC(=O)N1CCCC(c2nc3c(nnn3Cc3ccc(C)cc3)c(=O)[nH]2)C1 (configuration not stated) | >57 | ?
92 | Cc1cccc(NC(=O)CN(C)S(=O)(=O)c2cnc[nH]2)c1 | >57 | 9%
93 | CCS(=O)(=O)CCSc1nc(C)cc(C)n1 | >57 | -3%
94 | CCCCCCCCN[C@@H](C)[C@H](O)c1ccc(SC(C)C)cc1 | >57 | -4%[3.58 µM]
95 | COc1ccc(C(=O)CSc2nnc(-c3cc4ccccc4cc3O)n2Cc2ccco2)cc1 | >57 | ?
96 | N#Cc1nc(Cc2ccccc2)oc1N1CCC(Cc2ccccc2)CC1 | >57 | -6%
97 | COc1ccccc1-c1nnc2n1N=C(C)CS2 | >57 | -14%
98 | CCOC(=O)C1=C(CC)Nc2ccccc2N=C1NC(=O)Nc1ccccc1OC | >57 | 7%
99 | COC(=O)c1nc(-c2ccccc2)n[nH]1 | >57 | -13%
100 | C=CCn1c(SCC(=O)c2ccc(OC)cc2)nnc1C(C)NC(=O)c1cccs1 (configuration not stated) | >57 | 18%
101 | COc1cc(OC)c(NC2=NCCCCC2)cc1Cl | ? | 4%
102 | Cc1nn(-c2ccccc2)c2sc(C(=O)NC3CCCCC3)cc12 | >57 | -7%
103 | Cc1ccc(/C(O)=C2/C(=O)C(=O)N(CCCn3ccnc3)C2c2cccnc2)cc1 (configuration not stated) | . | 2%
104 | Cc1ccc(C)c(C(=O)CSc2n[nH]c(-c3ccncc3)n2)c1 | >57 | ?
105 | Cc1ccc(S(=O)(=O)NCCC(=O)NCCN2CCCCCC2)cc1 | >57 | 23%
106 | Nc1cc(S(N)(=O)=O)ccc1SSc1ccc(S(N)(=O)=O)cc1N | >57 | ?
107 | COc1cccc(NC(=O)CN2C(=O)COc3ccc(Cl)cc32)c1 | >57 | 16µM*
108 | CCCn1nc(CC(=O)O)c2ccccc2c1=O | >57 | -6%
109 | CC1CCN(C(=S)c2ccccc2O)CC1 | >57 | ?
110 | CCOc1ccccc1C(=O)N(CN1CCCC1=O)c1cccc(Cl)c1 | >57 | 3%
111 | CN1CCN(S(=O)C23CC4CC(CC(C4)C2)C3)CC1 (configuration not stated) | >57 | -6%
112 | COCC(C)NC(=O)C1CC(=O)N(c2ccc(C)cc2)C1 (configuration not stated) | >57 | 0%

Entries by screen from above:
SmPrx2 inh, compounds 105 to 112: >57, >57, >57, >57, >57, >57, >57, >57
Anthrax LT inh, compounds 105 to 112: 23%, ?, 16µM*, -6%, ?, 3%, -6%, 0%

Following part:
entry | mol | SmPrx2 inh | Anthrax LT inh
113 | CCCN=Cc1sc2ccc(OCC)cc2c1O | . | -9%
114 | O=c1c(-c2ccc(F)cc2)nc2cnc(Oc3cccc(Cl)c3)nc2n1C1CC1 | >57 | -11%
115 | Cc1c(C(=O)OCC2CCCO2)[nH]c2c1C(=O)CC(c1ccco1)C2 (configuration not stated) | >57 | ?
116 | COc1ccc2c(c1)c(C(O)CN1CCC3(CC1)OCCO3)c(C)n2C (configuration not stated) | >57 | 3%
117 | O=C(Nc1ccc2nc(-c3ccco3)c(-c3ccco3)nc2c1)N1CCCCCC1 | >57 | ?
118 | NS(=O)(=O)C[C-]1C=C[CH]([Sb-]([Cl])([Cl])([Cl])([Cl])[Cl])C=C1.c1ccncc1 (configuration not stated) | ? | 1%[8 µM]
119 | O=c1[nH]c2ccc(Cl)cc2c(-c2ccccc2)c1N1CCN(c2ccccn2)CC1 | >57 | -7%
120 | NC1=NC(=O)CC(C(=O)NCc2ccccc2)S1 (configuration not stated) | >57 | -2%
